# StopGo FLuc: Primary qHTS Assay for Foot and Mouth Disease Virus Antivirals against NCGC Sytravon and CBC Compound Libraries: Firefly Luciferase Signal. actives 0.23% (n = 120,000). HEK cells with a luciferase reporter of 2A StopGo recoding. Potency, µM (titrated, usually from 57.5 µM), for inactives: at the top dose signal change, negative = less light; active = well fitted falling curve with a large enough effect; inconclusive = small, poorly fitted or top-dose-only effect; inactive = no such curve, though single readings can be large or run the other way; note: nearly all actives have a fitted effect of over 60% in size; overnight with compound
# StopGo RLuc: Primary qHTS Assay for Foot and Mouth Disease Virus Antivirals against NCGC Sytravon and CBC Compound Libraries: Renilla Luciferase Signal. Potency, µM (highest dose often 57.5 µM), for inactives: top-dose signal change, negative = less light. actives 0.32% (n = 120,000). HEK cells with a luciferase reporter of 2A StopGo recoding. AID 1745857, 2022; active means well fitted falling curve with a large enough effect; inconclusive means small, poorly fitted or top-dose-only effect; inactive means no such curve, though single readings can be large or run the other way; note: nearly all actives have a fitted effect of over 55% in size; overnight with compound
# * marks the source's active call; other numbers are inactive results; ? = inconclusive; & = joins results of further samples; [ ] = another dose, or the depositor's remark. % is set by controls: 0 for no effect and ±100 for the full control effect; potency is the fitted concentration of half-maximal effect. Some of the compounds tested. The share of hits here may be higher or lower than overall.
# Start of the listing, in advance:
SMILES,StopGo FLuc,StopGo RLuc
CCOC(=O)C1=C(CN(CC)Cc2ccccc2)NC(=O)NC1c1ccc(OC(C)C)cc1 (stereo not given),-27.7%,-1.4%
O=C(COc1ccc(Cl)cc1)Nc1nc2n(n1)C(c1ccc(Cl)cc1)CC(=O)N2 (stereo not given),4.6%,-4.7%
CCCNC(=O)CSc1c(CCC)cnc2c1c(=O)n(C)c(=O)n2C,-10.3%,-5.9%
CCNc1c(NC(=O)Nc2cccc(C)c2)c(=O)oc2ccccc12,-3.9%,-8.1%
COc1ccc(-c2nnsc2C(=O)NC2CCCCCCC2)cc1,3.9%,0.8%
COc1ccc(CC(=O)N(C)Cc2ccc(Cl)cc2)cc1S(=O)(=O)N1CCOCC1,12.3%,7.5%
CC(C)C[C@H](NC(=O)COc1ccc2nc3n(c(=O)c2c1)CCCCC3)C(=O)O,5.8%,3.9%

# The listing, from the start:
SMILES,StopGo FLuc,StopGo RLuc
CCOC(=O)C1=C(CN(CC)Cc2ccccc2)NC(=O)NC1c1ccc(OC(C)C)cc1 (stereo not given),-27.7%,-1.4%
O=C(COc1ccc(Cl)cc1)Nc1nc2n(n1)C(c1ccc(Cl)cc1)CC(=O)N2 (stereo not given),4.6%,-4.7%
CCCNC(=O)CSc1c(CCC)cnc2c1c(=O)n(C)c(=O)n2C,-10.3%,-5.9%
CCNc1c(NC(=O)Nc2cccc(C)c2)c(=O)oc2ccccc12,-3.9%,-8.1%
COc1ccc(-c2nnsc2C(=O)NC2CCCCCCC2)cc1,3.9%,0.8%
COc1ccc(CC(=O)N(C)Cc2ccc(Cl)cc2)cc1S(=O)(=O)N1CCOCC1,12.3%,7.5%
CC(C)C[C@H](NC(=O)COc1ccc2nc3n(c(=O)c2c1)CCCCC3)C(=O)O,5.8%,3.9%
COc1ccc(-c2nc(CS(=O)CC(=O)NCc3ccccc3OC)c(C)o2)cc1 (stereo not given),8.5%&19.0%,13.6%&-2.3%
CCC(=O)N1CCCc2cc(S(=O)(=O)N3CCC(C(=O)NC4CCC(C)CC4)CC3)ccc21 (stereo not given),24.0%,-2.5%
Cc1ccc(Sc2ccc(C=O)o2)cc1,8.4%,-5.0%
NC(=O)C1CN(C(=O)c2nn(-c3ccccc3)c(=O)c3ccccc23)c2ccccc2O1 (stereo not given),-5.5%,18.1%
Cc1ccc(S(=O)(=O)N2CCN(C(=O)CNC(=O)c3ccc4c(c3)OCO4)CC2)cc1,-3.1%,-10.0%
N#Cc1cccc(NC(=O)COc2ccc(C(=O)c3ccccc3)cc2)c1,6.9%,11.7%
CCC(=O)Nc1ccc(S(=O)(=O)NCc2ccc3c(c2)CCN3C(=O)c2ccc(C)cc2)cc1,-28.1%,-19.6%
CC(C)CCNS(=O)(=O)c1ccc(N2CCCCS2(=O)=O)cc1,-27.9%,55.3%[activator]
CC(C)c1ccc(S(=O)(=O)c2nnn3c2nc(N2CCCCC2)c2sccc23)cc1,-19.6%,-7.5%
CC(C)CC(=O)Nc1cc(-c2ccccc2F)nn1-c1ccccc1,-9.2%,25.5%
Cc1ccc(Cn2nc(C)c(NC(=O)c3cc(-c4ccc(F)cc4)on3)c2C)cc1,-12.8%,-3.6%
O=C(NC1CCN(Cc2ccccc2)CC1)C1CCN(S(=O)(=O)c2ccc(F)c(F)c2)CC1,8.7%,-6.8%
CCCNC(=O)CN1CCN(Cc2nc3ccccc3o2)CC1,-1.5%,-9.6%
Cc1ccccc1-c1nnc(SCC(=O)Nc2ccc3c(c2)OC2(CCCCC2)O3)o1,107.4%[activator],-8.6%
CC(C)(C)c1cc(NCc2cccnc2)n2ncc(-c3ccccc3)c2n1,22.5%,3.4%
NS(=O)(=O)c1ccc(CCNC(=O)Cn2c(=O)c3cccn3c3ccc(F)cc32)cc1,-16.2%,-7.6%
COc1ccc(OC(C)c2nc(-c3ccc(Br)cc3)no2)cc1 (stereo not given),21.9%,-14.7%
O=C(NC1(C(F)(F)F)C(=O)Nc2c1c(=O)[nH]c(=O)n2-c1ccccc1)c1cccs1 (stereo not given),-8.4%,-5.4%
Cc1cc(C)c(NS(=O)(=O)c2c(C)cc(N3C(=O)CCS3(=O)=O)cc2C)c(C)c1,12.3%,5.7%
Cc1ccc(-n2ncc3c(NCCCn4ccnc4)ncnc32)cc1C,142.9%[activator],1.6%
C=Cc1ccc(Cn2c(=O)n(-c3ccccc3C)c(=O)c3c4c(sc32)CN(C(C)=O)CC4)cc1,-5.2%,23.3%
COc1ccc2c(CNCc3cccs3)c(C(=O)O)n(Cc3ccc(C)cc3)c2c1,-4.6%,-2.0%
CC1(C)Cc2ccccc2-c2nc(CN3CCCCC3)[nH]c(=O)c21,-4.1%,-6.0%
Cc1ccc(CCC(=O)O)cc1Cl,16.6%,8.6%
NC(=O)CSc1ncc(-c2ccc(F)cc2)o1,153.0%[activator],-6.6%
CCN(C(=O)Cn1c(=O)c2c(ncn2CCOC)n(Cc2ccccc2)c1=O)c1ccccc1,9.3%,10.4%
CC(CNC(=O)c1cc2ccccc2oc1=O)N(C)c1ccccc1 (stereo not given),6.8%,-7.4%
Cc1ccc(CNC(=O)CCC(=O)N2CCSc3ccccc32)cc1,15.0%,15.2%
O=C1CC(c2ccccc2OCc2ccccc2F)c2cn[nH]c2N1 (stereo not given),-1.4%,21.0%
COc1ccccc1-c1nc(-c2cccc(NC(=O)Nc3ccc(F)cc3)c2)no1,76.4%[activator],3.9%
c1ccc(N2CCN(c3nc(N4CCOCC4)c4nccnc4n3)CC2)cc1,10.9%,0.8%
CC(C)=CCCC(C)CCC/C(C)=N/NC(N)=O (stereo not given),10.0%,3.6%
Cc1oc(-c2ccccc2F)nc1CS(=O)(=O)CC(=O)NCCCSC1CCCCC1,-4.6%,10.5%
CC(=O)Nc1ccc(SC2CCCCC2=O)cc1 (stereo not given),9.2%,14.1%
COC(=O)C1(NC(=O)CSc2ccccc2Cl)CCCCC1,-1.8%,93.6%[activator]
COc1cccc(COc2ccc3c(=O)c(Oc4ccccc4OC)coc3c2)c1,57.7%[activator],21.1%
COC(=O)c1cc(C)nc2c1c(=O)n(Cc1nc(-c3ccc(OC)c(OC)c3)oc1C)c(=O)n2C,11.5%,-0.6%
O=C(Nc1ccc(F)c(Cl)c1)c1ccc[n+]([O-])c1,12.9%,-0.5%
Cc1ccc(C)c(-c2cn3ccccc3n2)c1,226.5%[activator],0.6%[1.06 µM]
CCc1ccccc1N1CC(c2nc3ccccc3n2CCCOc2ccc(Cl)cc2)CC1=O (stereo not given),64.1%[activator],-16.1%
CC(C)(C)NC(=O)COC(=O)c1ccc2ccccc2n1,27.7%,5.2%
Cc1ccc(-n2nnnc2C2(Nc3ccccc3)CCCC2)cc1,26.0%,188.5%[activator]
CC(C)(C)C(=O)Cn1c(=O)n(CCCCCC(=O)NCc2ccccc2Cl)c(=O)c2sccc21,18.1%,0.0%
CC(Nc1ccc([N+](=O)[O-])cn1)c1cccc(Cl)c1 (stereo not given),?,?
CCC(=O)N1CCc2cc(Br)cc(S(=O)(=O)N(CC)Cc3ccccc3)c21,-10.4%,32.4%[activator]
COc1ccc2c(CN3CCCC(C(F)(F)F)C3)cc(=O)oc2c1 (stereo not given),35.1%[activator],26.9%
CCOC(=O)c1cc2cc(C(F)(F)F)ccc2[nH]1,55.8%[activator],14.5%
O=C(CCc1nc(CSc2n[nH]c(-c3ccccc3)n2)no1)Nc1ccc2ccccc2c1,-4.6%,-5.9%
CCCc1ccc(C(=O)NCc2ccco2)cc1,146.1%[activator],38.5%[activator]
COc1cc(Cl)c(NC(=O)Cc2coc3cc(C)c(C)cc23)cc1OC,-16.8%,-19.8%
Cc1ccc(CC/C=N/NC(N)=S)o1,4.8%,1.5%
CCc1ccccc1NC(=O)C(CC)n1c2ccccc2c2nc(=O)cc(C)n21 (stereo not given),-11.4%,-10.7%
CCc1sc(Nc2cccc(C)c2)nc1-c1cc2cccc(OC)c2oc1=O,30.3%[activator],14.9%
# Other structures.
SMILES,StopGo FLuc,StopGo RLuc
COCCNC(=O)c1ccccc1NC(=O)c1nc(-c2ccccc2)oc1C,14.2%,0.0%
COCCNC(=O)c1nc(-c2cccc3[nH]ccc23)no1,137.1%[activator],16.2%
O=C(O)c1ccc(Nc2nc(-c3ccc4ccccc4c3)cs2)cc1O,0.0%,5.9%
Cc1ccc(-n2nc3ccc(NC(=O)Cc4ccc(Cl)cc4)cc3n2)cc1,-2.3%,20.2%
CCc1cccc(NC(=O)c2ccc3c(Cl)c4c(nc3c2)CCCC4)c1,57.3%[activator],-18.7%
COc1ccc(-n2c(C)c(C)c3c2ncn2nc(-c4ccccn4)nc32)cc1,9.3%,1.1%
N#Cc1c(/N=C/c2c(F)cccc2Cl)sc2c1CCCC2,33.1%,7.3%
CCn1nccc1-c1cc(C(=O)O)c2cccc(C)c2n1,6.1%,-13.1%
O=C(O)CC(O)C(=O)O (stereo not given),-9.5%[11.5 µM],-10.4%
Cc1ccc(-c2cc3ccccc3[nH]2)c(C)c1,0.0%,-13.0%[1.06 µM]
CCCCOc1ccc(C(=O)Nc2ccc(S(=O)(=O)Nc3nc(C)cc(C)n3)cc2)cc1,?,3.5%
Cc1sc(NC(=O)c2cccs2)c(C(c2cccnc2)N2CCOCC2)c1C (stereo not given),58.1%[activator],-1.3%
O=c1ccc2ccc(OCc3nc(-c4ccc(Cl)cc4)no3)cc2o1,11.4%,-3.8%
CC(=O)OCC(=O)NCCCOc1cccc(CN2CCCCC2)c1,-9.4%,-9.8%
COc1ccc2oc(=O)cc(CN3CCN(c4ccccc4F)CC3)c2c1,-13.5%,-7.9%
Cc1ccc(CNC(=O)CN(c2ccc(C(C)C)cc2)S(=O)(=O)c2c(C)n[nH]c2C)cc1,62.9%[activator],80.5%[activator]
CCOC(=O)N1CCN(S(=O)(=O)N2CCCC(C(=O)NCc3ccccc3OC)C2)CC1 (stereo not given),-13.2%,1.3%
CCOc1ccc(CCNC(=O)c2cc3c(-c4ccccc4F)nn(C)c3s2)cc1OCC,-14.8%,?
COc1ccc(C)cc1NS(=O)(=O)c1ccc2c(c1)n(C)c(=O)n2C,6.4%,210.0%[activator]
COC(=O)C1=C(C)N(C)C(=O)N(C)C1c1cc(Br)ccc1F (stereo not given),-3.2%,-9.2%
O=C(c1ccc(S(=O)(=O)NCc2ccco2)cc1)N1CCCCC1,24.9%,12.0%
CCCCNc1nc(-c2ccccc2F)nc2ccccc12,0.1%,2.6%
CC(OC(=O)c1ccc(C#N)cc1)C(=O)C12CC3CC(CC(C3)C1)C2 (stereo not given),7.5%,11.6%
CCc1cccc(NC(=O)c2nnn(Cc3ccc(SC)cc3)c2N)c1,33.8%[activator],3.5%
Cn1nc(C(=O)OCC(=O)N(Cc2ccccc2)C(C)(C)C)c2ccccc2c1=O,13.7%,8.2%
NC(=O)c1ccc(C(=O)NN=C(c2ccccc2)c2ccccc2)s1,-12.3%,18.1%
Cc1cccc(N2CCN(S(=O)(=O)c3ccc(-c4coc(C)n4)cc3)CC2C)c1 (stereo not given),7.3%,-14.6%
O=C(O)C(Sc1ccc(F)c(Cl)c1)c1ccccc1 (stereo not given),17.4%,10.8%
CCOC(=O)C1C(c2cc(OC)c(OC)c(OC)c2)NC(=O)NC1(O)C(F)(F)F (stereo not given),28.3%,8.0%
Cn1cnc(C(=O)O)c1,7.3%,-5.2%
Cc1ccc(Cl)cc1-n1ncc2c(NCc3ccc(F)cc3)ncnc21,-16.5%,-19.1%
CCc1cc(C(c2ccccc2OC)N2CCN(C)CC2)c(NC(=O)c2ccco2)s1 (stereo not given),-23.0%,-8.9%
CC(C)Nc1nc(C(=O)Nc2nccs2)cs1,143.7%[activator],-18.3%
CCCCNC(=S)N(C)N,-2.1%,3.2%
Cc1ccc2oc(-c3cccc(NC(=O)c4cccc5c(Br)cccc45)c3)nc2c1,20.6%,-12.5%
COc1ccc(NCc2cc3cc4c(cc3n(CC(=O)Nc3ccccc3)c2=O)OCO4)cc1,1.5%,6.5%
CC(C)C(=O)NNC(=O)c1ccc2c(c1)NC(=O)CS2,0.3%,6.7%
Fc1ccccc1N1CCN(c2nc3ccccc3c3nc(-c4ccccc4)nn23)CC1,-24.6%,4.7%
COc1ccccc1/C=C1\N=C(SC)SC1=O,4.2%,3.8%[1.06 µM]
CCCCn1c(=O)[nH]c(=O)c2c1nc(-c1ccncc1)n2CC(C)C,9.8%,-4.1%
O=C(NCCc1c[nH]c2ccccc12)c1ccc(F)c(F)c1,206.0%[activator],8.1%
CCn1nc(C(=O)Nc2ccncc2)c2ccccc2c1=O,19.0%,11.7%
CC(C)(C)c1ccc(NC(=O)c2ccc(C(F)(F)F)nc2)cc1,?,?
Cc1ccc(C)c(N2CCN(C(=O)Cn3nc(Cc4cccnc4)c4ccccc4c3=O)CC2)c1,?,-29.8%
CCCCOc1cccc(NC(=O)c2cccc(C(=O)Nc3cccc(OCCCC)c3)c2)c1,-6.3%,-7.2%
CC(C)C(=O)N1CCN(C(=O)C2CC(=O)N(c3cccc(C(F)(F)F)c3)C2)CC1 (stereo not given),-3.6%,-5.5%
CNC(=O)c1nn(CC(=O)NC(C)c2ccccc2)c(=O)c2ccccc12 (stereo not given),5.6%,0.4%
COc1cccc(C2CC(=O)Nc3c2c(=O)[nH]c2ncnn32)c1 (stereo not given),0.1%,2.6%
Cc1ccc2c(CN3CCN(c4ccccc4)CC3)cc(=O)oc2c1,8.0%,-2.5%
CCN(CC(O)COCCC12CC3CC(CC(C3)C1)C2)C1CCCCC1 (stereo not given),?,?
CS(=O)Cc1cccc(C(=O)NCC(C)(C)c2ccccc2)c1 (stereo not given),11.4%,-1.9%
